Autofluor counter – counter-screen for toxin protease inhibitors: compound fluorescence. compound autofluorescence counterscreen, microsphere flow cytometry; hits give high values. fluorescence intensity (test concentration not listed). actives 3.1% (n = 360,000). AID 624483;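 active means at least 3 SD above the mean of all compounds, about 16000 in these data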;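 further: 100 nL of 1 mM stock went into each well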
Active calls of the source: *. An excerpt, so the mix of outcomes need not match the whole.

Molecule | Autofluor counter
O=C(Nc1ccc(Cl)cc1)C1Cc2c(-c3ccccc3)ccnc2O1 (centres undefined) | 3870
CCc1nc2ccc(C(=O)Nc3cccc(OCC(=O)N(C)C)c3)cn2c1N(C)C(=O)c1cccc(OC)c1 | 2990
Nc1nc(-c2ccccc2)c(CC(=O)O)s1 | 3920
Cc1ccc2nc(-c3ccccc3)c(CC3CCCCC3)n2c1 | 8552
CCOc1ccc2nc(S(=O)(=O)NC(=O)C3(C)CCN3C(=O)c3cccc(F)c3)sc2c1 (centres undefined) | 3468
CS(=O)(=O)c1ccc(C2=C(CNC(=O)c3nccs3)[C@H]3CC[C@@H](C2)N3Cc2ccccc2)cc1 | 3502
OC(c1ccccc1)c1nc(-c2cncnc2)cs1 (centres undefined) | 3405
C[C@@H](c1ccccc1)N1C[C@@H](COCc2ccccc2)Oc2cc(N3CCC[C@H]3C(N)=O)ccc2S1(=O)=O | 6067
CCCCNC(=O)C1c2ccccc2OCC(=O)N1CC(F)(F)F (centres undefined) | 4191
Cc1noc(C)c1-c1ccc(C(=O)NCC(C)C)c2occc12 | 3526
O=S1(=O)CC(N2CCN(Cc3ccccc3F)CC2)CN1Cc1cn(Cc2cccc(C(F)(F)F)c2)nn1 (centres undefined) | 4147
COC(=O)c1ccccc1C(=O)c1c(C)cc(C)cc1C | 5747
NC(Cc1ccc(Cl)cc1)c1csc(Nc2ncccn2)n1 (centres undefined) | 3474
C[C@@H]1CN([C@@H](C)CO)C(=O)c2cc(C#Cc3ccccc3)cnc2O[C@@H]1CN(C)Cc1ccccn1 | 3760
CC(=O)N1C[C@H]2CON(C)[C@H]2C[C@H]1c1ccc(-c2ccc(C#N)cc2)cc1 | 3676
O=C1NCN(c2ccccc2)C12CCN(C(c1cccs1)c1nnnn1C1CCCC1)CC2 (centres undefined) | 5193
Cc1cc(Nc2ccc(C)c(C)c2)n2ncnc2n1 | 3181
CCCCCCCCN1C(=O)[C@H](CC(=O)N2CCCCC2)C[C@@]2(C(=O)OCC)CCCC=C12 | 5652
Cc1ccc(CN2CC(N3CCCCC3)CS2(=O)=O)cc1 (centres undefined) | 6236
COC(=O)C[C@H]1C[C@H]2c3cc(NS(=O)(=O)c4ccc(OC)cc4)ccc3O[C@H]2[C@H](CO)O1 | 3951

Reformatted field by field: part of the list above
O=C(Nc1ccc(Cl)cc1)C1Cc2c(-c3ccccc3)ccnc2O1 (centres undefined)
  Autofluor counter: 3870
CCc1nc2ccc(C(=O)Nc3cccc(OCC(=O)N(C)C)c3)cn2c1N(C)C(=O)c1cccc(OC)c1
  Autofluor counter: 2990
Nc1nc(-c2ccccc2)c(CC(=O)O)s1
  Autofluor counter: 3920
Cc1ccc2nc(-c3ccccc3)c(CC3CCCCC3)n2c1
  Autofluor counter: 8552

Additional results follow.
Molecule | Autofluor counter
CCCCn1nnnc1C(CCSC)N1CCN(C/C=C/c2ccccc2)CC1 (centres undefined) | 6180
O=C1C=CC(=NN=C(c2ccccc2)c2ccccc2)C=C1 | 5645
O=C(C=Cc1ccc2c(c1)OCO2)C1CC1 | 3944
OC[C@@H]1CN(Cc2ccc(Cl)cc2)C[C@H](n2cnc3c(NCc4ccc(F)cc4)ncnc32)O1 | 3463
CN1OC[C@@H]2CN(C(=O)c3cccc4ccccc34)[C@H](c3ccccc3Br)C[C@@H]21 | 5957
CC(C)(C)OC(=O)N1CCC(NC(=O)c2[nH]cnc2C(=O)Nc2ccccc2F)CC1 | 4001
Cc1ccc([C@H]2C[C@@H](O)[C@H](n3cc(-c4ccc(F)cc4)nn3)CN2C(=O)C2CCCCC2)cc1 | 3482
Cc1cc(C)n(-c2ccc(C(=O)N3CCN(S(=O)(=O)c4ccc(Br)cc4Cl)CC3)cc2)n1 | 3013
COc1ccc(CNC(=O)C2Cc3c(-c4ccccc4Oc4ccccc4)ccnc3O2)cc1OC (centres undefined) | 4621
CCCc1c(-c2ccc(Cl)cc2)ncn1CCc1ccccc1OC | 4412
COc1ccc(C(C)=O)c(OCC(=O)NCCC2=CCCCC2)c1 | 2940
COCCNc1nc(Oc2ccc(NC(C)=O)cc2)c2sc(-c3ccccc3)cc2n1 | 3424
C[C@@H]1CCCCO[C@@H](CN(C)S(=O)(=O)c2ccc(Cl)cc2)[C@@H](C)CN([C@H](C)CO)C(=O)c2cc(N(C)C)ccc2O1 | 3561
NC(COCc1ccccc1)c1csc(Nc2ccc(C(=O)c3ccccc3)cc2)n1 (centres undefined) | 3766
COc1ccc(-c2coc3c(C(=O)NCC4CCOCC4)cccc23)c(C)c1 | 2837
COc1ccccc1CNc1nc(NCc2ccccc2F)c2sccc2n1 | 2914
COC(=O)c1ccc2nc(C3CCCCC3)c(CC(C)(C)C)n2c1 | 5759
COc1ccccc1S(=O)(=O)N(C)C[C@H]1OCc2cnnn2CCCC(=O)N([C@H](C)CO)C[C@@H]1C | 5328
COCCNC(=O)c1cccc2c(-c3cnn(C)c3)coc12 | 3930
Cn1c(N)c(C(=O)N2CCN(c3ccccc3)CC2)c(=O)n(C)c1=O | 3895
CCCS(=O)(=O)NC(=O)C1(C)CCCN(C(=O)c2c(OC)cccc2OC)C1 (centres undefined) | 3965
c1ccc2c(C(c3nnnn3-c3ccc4c(c3)OCCO4)N3CCCC3)ccnc2c1 (centres undefined) | 5176
CCc1nc2ccc(C(=O)NCCN3CCNC3=O)cn2c1N(CC)CCOC | 3507
C[C@@H]1CN([C@H](C)CO)C(=O)c2cc(Br)cnc2O[C@H]1CN(C)C(=O)CC1CC1 | 3748
CC(C)Oc1cc(F)ccc1-c1cc(C(=O)Nc2cccc(Cl)c2)[nH]n1 | 3936
COCCn1c(=S)[nH]c2cc(C(=O)N3CCN(C4CCCCC4)CC3)ccc2c1=O | 3822
COc1ccc(C(C)(NC(C)=O)c2nc(-c3ccccc3OC)cs2)cc1 (centres undefined) | 3775
CCCS(=O)(=O)NC(=O)C1(C)CCN(C(=O)c2ccc(SC(F)(F)F)cc2)C1 (centres undefined) | 3754
Nc1[nH]c(C(=O)c2ccccc2)c(-c2ccccc2Br)c1C(=O)NCCc1ccc(Cl)cc1Cl | 4268
COCCNc1nc(NCCOc2ccccc2Cl)c2sc(-c3ccccc3)cc2n1 | 3550
OC[C@@H]1CN(Cc2ccc3c(c2)OCO3)C[C@H](n2cnc3c(NCc4ccncc4)ncnc32)O1 | 3510
Cc1ccc(C(c2c(NC(=O)c3ccco3)sc(C)c2C)N2CCOCC2)cc1 (centres undefined) | 2963
Cc1ccsc1CN(C)CC(=O)N(C)CC(=O)Nc1c(Cl)cccc1Cl | 2803
N#Cc1cccc(NC(=O)c2cc(C3CCCCN3C(=O)c3ccccn3)on2)c1 (centres undefined) | 3470
NC(Cc1ccc(Cl)cc1)c1csc(Nc2ccccn2)n1 (centres undefined) | 3375
CSc1ncnc2c1ncn2CCCN1CCN(C(=O)C2CC2)CC1 | 2883
COc1ccc(C2CC(=O)Nc3cc(OC)c(OC)cc32)cc1 (centres undefined) | 3984
Cc1c(Cl)cnc(NC(=O)COC(=O)c2cccc(S(=O)(=O)N3CCOCC3)c2)c1Cl | 3656
COc1cccc(CNC(=O)[C@@H]2CCCN2C(=O)[C@@H]2CCCN2C(=O)c2cccc(Cl)c2)c1 | 5647
Cc1cc(C)c2c(CN(Cc3ccccc3)Cc3ccccc3)cc(=O)oc2c1 | 6445

3 compounds from above, ordered by molar mass, rising:
Molecule | Autofluor counter
CSc1ncnc2c1ncn2CCCN1CCN(C(=O)C2CC2)CC1 | 2883
COCCn1c(=S)[nH]c2cc(C(=O)N3CCN(C4CCCCC4)CC3)ccc2c1=O | 3822
OC[C@@H]1CN(Cc2ccc3c(c2)OCO3)C[C@H](n2cnc3c(NCc4ccncc4)ncnc32)O1 | 3510

Next section
Molecule | Autofluor counter
Cc1ccc(N(CC(=O)NC(C)C)C(=O)CCC(=O)Nc2ccccn2)c(C)c1 | 3761
CS(=O)(=O)N1CCCCC1c1cc(C(=O)NCc2ccc(Cl)c(Cl)c2)no1 (centres undefined) | 3502
C[C@@H]1CN([C@@H](C)CO)S(=O)(=O)c2ccc(Br)cc2O[C@@H]1CN(C)C(=O)C1CC1 | 3427
Cc1cccc(C)c1NC(=O)Nc1nc(CN(C)C)cs1 | 3850
COc1ccc(CN2C(=O)C(CC(=O)NC3CCCC3)CC(C(=O)N(C)C)=C2C)cc1 (centres undefined) | 2968
CN1CCn2cnc(C(=O)NCc3ccccc3)c2C1=O | 3308
CCCNC(=O)c1cc(C2CCCCN2S(=O)(=O)c2cn(C)cn2)on1 (centres undefined) | 3305
O=C(NCCO)c1cccc(-c2ccc3nncn3c2)c1 | 3580
Cc1cn([C@H]2C[C@H](O)[C@@H](CNCc3ccc(F)c(N4CCOCC4)c3)O2)c(=O)[nH]c1=O | 3637
CN(CC(=O)Nc1cccc(S(=O)(=O)N(C)c2ccccc2)c1)Cc1cccs1 | 3726
Cc1ccnc(SC2CC(=O)N(c3ccccc3)C2=O)n1 (centres undefined) | 2995
CCc1ccc(C(O)c2ncc(-c3ccccc3OC)[nH]2)cc1 (centres undefined) | 3752
CCCNC(=O)Cn1nc(-c2ccccc2OC)ccc1=O | 3532
CCCCN1C[C@H](c2ccccc2)[C@@H](CC(=O)NC)C1=O | 2840
CC1=C(C(=O)Nc2ccc(C(=O)NCCCN3CCCCC3C)cc2)SCCO1 (centres undefined) | 4915
Cc1ccc(NC(=O)CSc2nnnn2C)cc1S(=O)(=O)N1CCCCC1 | 3750
COc1cccc(CNc2nc3cc(-c4ccc(F)cc4)sc3c(=O)n2C)c1OC | 2867
COc1ccc(NS(=O)(=O)c2cccc(C(=O)N3CCOCC3)c2)cc1 | 2842
CC1(C(=O)NCc2ccccc2Br)CCN1Cc1ccccc1OC(F)F (centres undefined) | 4082
O=C(C[C@@H]1C[C@H]2c3cc(NC(=O)NC4CCCCC4)ccc3O[C@H]2[C@H](CO)O1)NC1CCCCC1 | 3846
OCC[C@@H]1C[C@H](O)[C@@H](O)[C@]2(OCCc3cc(C(F)(F)F)ccc32)O1 | 3540
C[C@@H]1CN([C@H](C)CO)C(=O)CCCn2nncc2CO[C@H]1CN(C)S(=O)(=O)c1ccccc1F | 3504
COc1cccc(NC(=O)C2(C)CCCN2C(=O)C(C)C)c1 (centres undefined) | 3933
Nc1nc2c(ncn2[C@@H]2O[C@H](CNS(=O)(=O)C3CC3)[C@@H](O)[C@H]2O)c(=O)[nH]1 | 4390
O=C(/C=C/c1ccccc1Cl)OCC(=O)N1CCc2ccccc21 | 3856
C[C@@H]1CN([C@@H](C)CO)C(=O)CCCn2cc(nn2)CO[C@H]1CN(C)S(=O)(=O)c1cn(C)cn1 | 3826
CC1(C(=O)Nc2ccc(Cl)cc2)Cc2c(-c3cccc(C(F)(F)F)c3)ccnc2O1 (centres undefined) | 2789
Cc1onc(-c2ccccc2)c1NC(=O)OC(C)c1cccnc1 (centres undefined) | 3537
Cc1cc(NC(=O)COC(=O)c2ccc(Cl)cc2)no1 | 3781
N#CC(c1ccccc1)C(CC(=O)c1ccccc1)c1ccccc1 (centres undefined) | 3846
Cc1csc(-c2cc(C(=O)NCc3ccc(F)cc3)n[nH]2)c1 | 3747
OC(c1ccc(Cl)c(Cl)c1)c1ncc(-c2ccc(Cl)cc2)[nH]1 (centres undefined) | 3505
COc1ccc(C(C#N)=Cc2ccc(OC)c(OC)c2)cc1 | 3550
CC1CN1c1cc2c(c3c1ccn3C)C1CCC2C1 (centres undefined) | 5654
COc1ccc(NC(=O)C[C@H]2C(=O)N(Cc3ccccc3)C[C@@H]2Cc2ccccc2)cc1 | 3846
COc1cccc(C(=O)N2CCC[C@H]2C(=O)N2CCC[C@H]2C(=O)NCc2ccccn2)c1 | 5848
OC(c1ccccc1)(c1nc(-c2ccc3ccccc3c2)cs1)C(F)(F)F (centres undefined) | 3405
Cc1cccc(C)c1NC(=O)CN1CCN(c2ccc(F)cc2)CC1 | 5760
COCCNc1nc(NCC2CCCCC2)c2sc(-c3ccccc3)cc2n1 | 3050
COc1ccc(C(N)c2csc(Nc3nncc4ccccc34)n2)cc1 (centres undefined) | 3538
CCOc1ccccc1NC(=O)CN(c1ccc(OC)c(OC)c1)S(=O)(=O)c1ccc(C)cc1 | 3564
CCCC(=O)N(Cc1cc2cc(OC)ccc2[nH]c1=O)c1ccccc1OC | 3091
C[C@H](CO)N1C[C@H](C)[C@@H](CN(C)C(=O)Nc2ccccc2F)Oc2cc(Br)ccc2S1(=O)=O | 5069
O=C(c1ccc(F)cc1)C1CCN(Cc2ccccc2F)CC1 | 4933
C/C=C/c1ccc2c(c1)O[C@H](CN(C)CC1CCOCC1)[C@@H](C)CN([C@H](C)CO)S2(=O)=O | 3377
COc1ccc(C(=O)C=Cc2ccc3c(c2)OCO3)cc1OC | 3597
CCOc1ccc2nc(S(=O)(=O)NC(=O)C3(C)CCN3C(=O)CCc3cccs3)sc2c1 (centres undefined) | 3663
Cc1ccccc1-c1cc2nc(NCCc3ccncc3)n(C)c(=O)c2s1 | 3874
O=C(CCNS(=O)(=O)c1ccc(Cl)cc1)NCCc1ccccc1 | 3063
O=C1CCCN1CCCNc1nc(NCc2cccs2)nc2ccsc12 | 3648
COc1ccc(Cc2c(-c3ccc(Cl)cc3)nc3c(C)cc(Br)cn23)c(C)c1 | 6157
COc1ccc(C(c2nnnn2C(C)(C)C)N2CCC3(CC2)C(=O)NCN3c2ccccc2)cc1 (centres undefined) | 5130
O=C(Nc1ccc(F)c(Cl)c1)c1cc(C2CCCCN2C(=O)c2cccs2)on1 (centres undefined) | 2878
Cc1ccccc1-c1nc(NCC2CC2)nc2ccsc12 | 3805
COc1ccc(-c2csc(Nc3cccc(C)n3)n2)cc1OC | 3774
COCC(=O)N(C)C[C@H]1Oc2cc(Br)ccc2S(=O)(=O)N([C@H](C)CO)C[C@H]1C | 2911
O=C1NC[C@H](Cc2ccc(O)cc2)N(C[C@@H]2CCCN2C[C@H](Cc2ccc(O)cc2)N2C[C@H](Cc3ccccc3)N(CC3CCCCCC3)C(=O)C2=O)C1=O | 5980
COc1ccc(-c2csc(Nc3ccc(Oc4ccccc4)cc3)n2)cc1 | 5459

Screening data as filed in PubChem BioAssay.
